ClpP mod: qHTS Assay for Activators of ClpP; purified B. subtilis ClpP, FRET peptide cleavage, 20 min; Potency, µM (series often up to 57.5 µM), without a hit: top-dose activity change, negative = active; 1.9% of 340,000 active; AID 651965, 2013; active = well fitted falling curve with a large enough effect; inconclusive = small, poorly fitted or top-dose-only effect; inactive = no such curve, though single readings can be large or run the other way; further: potency means the concentration at half of the fitted maximal effect; the source files actives as falling curves though it sought activators and does not explain the sign; nearly all actives have a fitted effect of over 65% in size; many hits overshoot -100%
Target sequence (P80244 whole entry, looked up): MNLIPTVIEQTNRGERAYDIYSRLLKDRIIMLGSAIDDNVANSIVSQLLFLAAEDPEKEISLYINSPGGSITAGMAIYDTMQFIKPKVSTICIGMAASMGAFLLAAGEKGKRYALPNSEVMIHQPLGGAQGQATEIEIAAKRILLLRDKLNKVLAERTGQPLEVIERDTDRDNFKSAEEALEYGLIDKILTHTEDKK
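Purified B. subtilis ClpP, 10 microg/mL final in Tris/HCl pH8 with KCl, BSA, glycerol and Tween-20, cleaved an Abz/nitrotyrosine-quenched decapeptide. Fluorescence (ex 320, em 430) was read at 0 and 20 min at room temperature. Delta was normalized to 5.8 microM ADEP and DMSO/no-enzyme controls.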
TRPML1 inh: blocks the human TRPML1 channel | Q9GZU1 | TRPML1-inducible cells, Ca2+ dye fluorescence, FDSS; hits give low values; inhibition of EC80 agonist-evoked calcium signal | activity change, negative = inhibition, % (concentration not given with the values) | 0.02% of 390,000 active | AID 624415; in the data active means activity change below about -50%; inconclusive means about -30% to -50%; inactive means above about -30%;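 further: stimulus is agonist 54-4 at its EC80 concentration; on the % scale 0 is the no-effect control and ±100 the full control effect; compound concentration not given in the record; the text of the record puts the active cut at -80%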
Target sequence (Q9GZU1 whole entry, looked up): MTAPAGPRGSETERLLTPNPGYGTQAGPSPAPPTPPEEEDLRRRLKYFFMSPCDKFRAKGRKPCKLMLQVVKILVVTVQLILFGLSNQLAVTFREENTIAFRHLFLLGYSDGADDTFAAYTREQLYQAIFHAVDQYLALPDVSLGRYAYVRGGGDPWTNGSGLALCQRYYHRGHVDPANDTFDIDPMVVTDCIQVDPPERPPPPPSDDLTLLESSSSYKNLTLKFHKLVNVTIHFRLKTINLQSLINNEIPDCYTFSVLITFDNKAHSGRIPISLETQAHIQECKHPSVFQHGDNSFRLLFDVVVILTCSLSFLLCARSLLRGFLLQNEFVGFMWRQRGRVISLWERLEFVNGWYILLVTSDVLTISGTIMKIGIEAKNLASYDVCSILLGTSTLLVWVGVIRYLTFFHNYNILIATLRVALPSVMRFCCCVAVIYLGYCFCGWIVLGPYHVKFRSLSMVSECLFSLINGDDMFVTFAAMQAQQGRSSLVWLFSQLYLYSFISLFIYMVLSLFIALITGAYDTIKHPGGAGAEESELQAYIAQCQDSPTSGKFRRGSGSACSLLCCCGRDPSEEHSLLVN
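Tet-induced TRPML1-DL cells loaded with Ca8 no-wash calcium dye were read kinetically on FDSS. Compound addition was followed by EC80 agonist 54-4 (4 uM final); inhibition was read over 110 s.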
TRPML1 agonist: activates the human TRPML1 channel; 0.12% of 410,000 active; TRPML1-expressing cells, Ca2+ dye fluorescence, FDSS; host cell line not named in the record; reference of the full effect not given here; activation, % (test concentration not listed); AID 624414; in the data active = activation above about 50%; inconclusive = about 30% to 50%; inactive = below about 30%; further: 0% is about no effect; the text of the record puts the active cut at 80%
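Calcium fluorescence on an FDSS kinetic reader gave the read-out. Tet-induced TRPML1-DL cells were plated overnight, dye-loaded (Ca8 with quencher, 45-90 min, room temperature, dark), then read 110 s after compound addition, and again 110 s after 4uM final 54-4 (EC80).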
TRPV1 potentiator: enhances activation of the human vanilloid receptor TRPV1; potentiation, % at 8.33 µM; TRPV1-expressing cells, Fluo-8 calcium influx, capsaicin EC20 potentiation; host cell line not named in the record; control for the full effect not named in the record; Q8NER1; 0.02% of 320,000 active; active means potentiation above 80%; inconclusive means 30% to 80%; inactive means below 30%; further: 0% is about no effect
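Fluo-8 calcium influx in TRPV1-expressing cells, kinetic read (ex 480/em 520 nm). Compound added and read 3 min for agonist activity, followed by capsaicin at EC20 final and 2 min further read for enhancement.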
Menin MLL FP FL: menin-MLL binding inhibition, fluorescein peptide; AID 1766; 290,000 tested, under 10 active; Fluorescence polarization, fluorescein-MLL peptide displacement from menin; FP activity change, % at 61.4 µM; inconclusive = falling polarisation curve, or a change in total fluorescence; inactive = total fluorescence flat and polarisation flat or rising; no compound was filed as active; the % refers to the polarisation; negative = inhibition;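 further: % of control where 0% means no effect; inhibitors lower the polarisation; unlabelled MLL peptide was the positive control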
PINK1 expr mod: modulators of PINK1 expression. PINK1 immunofluorescence, high-content cytometry, 24 h. Potency, µM (highest dose often 76.6 µM), inactives show top-dose activation (PINK1 increase), actives largely listed as activators. 0.2% of 410,000 active; active = well fitted activation curve with a large enough effect; inconclusive = small, poorly fitted or top-dose-only effect; inactive = flat fitted curve, though single readings scatter; cell line not stated here;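 further: potency means the concentration at half of the fitted maximal effect; % of control where 0% means no effect; nearly all actives have a fitted effect of over 65% in size; a mitochondrial uncoupler was the plate control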
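A stable cell line was treated with compounds at 5 concentrations for 24 hours, with CCCP as control. PINK1 levels and mitochondrial localization were measured by immunofluorescence with mitochondrial, cell and nuclear markers after fixation, read by laser-scanning cytometry.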
Sfp PPTase inh: inhibitors of Bacillus subtilis Sfp phosphopantetheinyl transferase; Q9F4F7; Biochemical Sfp PPTase activity, qHTS; Potency, µM, for the others: max response, negative = inhibition, actives largely listed as inhibitors; 3.5% of 310,000 active; AID 1490; active means well fitted inhibition curve with a large enough effect; inconclusive means small, poorly fitted or top-dose-only effect, or another doubt; inactive means no such curve, though single readings can be large or run the other way;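 further: the enzyme is Sfp with the accession as filed and its product quenches rhodamine fluorescence; potency means the concentration at half of the fitted maximal effect; 0% = enzyme reaction without inhibitor and -100% = no enzyme wells; top concentration of the series not given in the record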
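Compounds were incubated with enzyme (final 15 nM) for 15 min at room temperature before substrate addition started the reaction. Fluorescence at 525 nm excitation, 598 nm emission was recorded immediately and after 30 minutes.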
* hit, by the source's call; ? = inconclusive; . = no result given; [ ] = remark or other dose.

structure,TRPML1 agonist,Sfp PPTase inh,TRPML1 inh,TRPV1 potentiator,PINK1 expr mod,ClpP mod,Menin MLL FP FL
Cn1c(N)c(C(=O)CN2CCc3ccccc3C2)c(=O)n(C)c1=O,0.8,21%,?,10,-0.1%,-4.0%,-8.0
O=S(=O)(c1ccccc1)c1nnn2c1nc(NCc1ccc(F)cc1)c1sccc12,1.1,.,-2,.,0.2%,-6.0%,.
O=C(CSCc1c(Cl)cccc1Cl)NCc1ccccn1,0.7,-1%,-13,-7,0.9%,0.5%,-1.3
Cc1ccc(-c2nnc(N3CCN(C(=O)CSc4ncn[nH]4)CC3)c3ccccc23)cc1,0.4,-7%,9,-19,-0.3%,-3.2%,2.9
COc1ccc(CCNC(=O)Cn2c(-c3cccs3)cc3cc(F)ccc32)cc1OC,-0.3,.,50,.,14%,4.2%,.
COc1ccc(/C=C(\C#N)C(=O)OCC(=O)NC(C)c2ccccc2)cc1 (configuration not stated),-0.2,-4%,-6,-22,0.2%,.,5.5
Cc1ccc(C=Nc2ccccc2C(=O)Nc2ccccc2)cc1,1.3,-6%,16,1,8.8%,28µM*,5.8
COc1ccc2c(c1)[nH]c1c(=O)n(CCN3CCOCC3)cnc12,0.2,-3%,2,3,-1.8%,.,1.5
N#C/C(=C(/O)c1ccco1)c1nc2ccccc2[nH]1,2.6,15%,15,-5,-1.1%,.,4.9
Cc1cc(NC(=O)Cn2nnc(-c3ccccc3N)n2)no1,-0.3,10%,9,0,1.4%,-4.3%,2.8

4 compounds from above, ordered by length of the SMILES, ascending.
structure,TRPML1 agonist,Sfp PPTase inh,TRPML1 inh,TRPV1 potentiator,PINK1 expr mod,ClpP mod,Menin MLL FP FL
N#C/C(=C(/O)c1ccco1)c1nc2ccccc2[nH]1,2.6,15%,15,-5,-1.1%,.,4.9
COc1ccc2c(c1)[nH]c1c(=O)n(CCN3CCOCC3)cnc12,0.2,-3%,2,3,-1.8%,.,1.5
COc1ccc(/C=C(\C#N)C(=O)OCC(=O)NC(C)c2ccccc2)cc1 (configuration not stated),-0.2,-4%,-6,-22,0.2%,.,5.5
O=S(=O)(c1ccccc1)c1nnn2c1nc(NCc1ccc(F)cc1)c1sccc12,1.1,.,-2,.,0.2%,-6.0%,.

The listing continues.
structure,TRPML1 agonist,Sfp PPTase inh,TRPML1 inh,TRPV1 potentiator,PINK1 expr mod,ClpP mod,Menin MLL FP FL
Cn1c(C(=O)NCc2ccccn2)cc2c(=O)n3ccccc3nc21,-0.2,13%,31,6,1.3%[38.3 µM],?,6.0
Cc1cccc(C)c1OCc1cc(C(=O)N(C)Cc2nc3ccccc3[nH]2)no1,2.1,10%,5,-15,?,-0.9%,-1.1
C=CCn1c(-c2csc(-c3ccccc3)n2)n[nH]c1=S,0.6,-25%,10,-18,-0.7%,-2.8%,-1.8
CCN(C(=O)/C=C/c1cc(OC)c(OC)c(OC)c1)C1CCCCC1,0.7,-5%,7,-8,2.0%,-22%,0.4
COc1ccccc1NC(=O)CS(=O)(=O)c1cccc2nsnc12,5.4,16%,25,-11,0.4%,-0.9%,-1.6
Cc1noc(COc2ccccc2OCC(N)=O)n1,1.0,.,11,.,-0.6%,.,.
Cc1cc(C)n2nc(C(=O)NCc3cccc(C(F)(F)F)c3)nc2n1,-0.6,17%,-12,-1,1.9%,.,9.5
O=C(/C=C/c1ccc(Cl)cc1)Nc1ccccc1N1CCOCC1,0.5,7%,22,2,16%,-15%,-1.0
COC(=O)c1sccc1NC(=O)CNC(=O)c1ccccc1,-1.3,19%,16,13,0.3%,1.8%,-2.4
CCN1CCN(C(=O)c2cnn(-c3ccc(F)cc3)c2-n2cccc2)CC1,3.1,.,13,.,-1.0%,0.1%,.
Cc1ccc(/C=C/c2nc3ccccc3c(=O)[nH]2)cc1,-0.6,14%,16,6,9.9%,?,3.2
O=C(Nc1c(C(=O)N2CCOCC2)cnn1-c1ccccc1)c1cccc(F)c1,1.1,25%,-4,15,-2.4%,1.4%,.
O=C(NCc1ccccn1)c1ccc(-c2ccccc2)cc1,1.4,-1%,3,-13,2.5%,.,-0.3
COc1cccc(C(=O)NC2=NCCS2)c1OC,-0.2,14%,-2,17,-1.3%[38.3 µM],-5.1%,7.5
Nc1ncnc2c1ncn2[C@@H]1O[C@H](C(=O)N2CCC(F)(F)CC2)[C@@H](O)[C@H]1O,-0.5,.,5,.,-0.3%,1.2%,.
N=C1C(c2nc(-c3ccc(Cl)cc3)cs2)=C(O)CN1NC(=O)c1ccc(O)cc1,-1.0,12%,-13,19,0.4%,2.4%,6.7
O=C(CCc1nc2ccccc2c(=O)[nH]1)Nc1nnc(SCc2ccccc2)s1,1.3,.,-4,-17,3.9%,-1.4%,.
Cc1cc(NC(=O)c2cc3ccccc3o2)cc(C)c1OCC(=O)N1CCOCC1,-0.5,1%,-21,1,1.9%[38.3 µM],0.0%,-3.0
Cc1ccc(-c2nn(CCC(=O)Nc3ccc(OC(F)(F)F)cc3)c(=O)c3ccccc23)cc1,1.7,.,1,.,4.5%,-1.7%,.
CCCc1cc(=O)[nH]c2nnc(SCC(=O)Nc3nnc(SCC)s3)n12,-0.1,.,-3,?,-0.5%,-3.7%,.
CCOc1ccc(-n2c(=O)c3c(C)c(C)sc3n(Cc3cc(=O)n4cc(Cl)ccc4n3)c2=O)cc1,2.5,.,-12,.,1.0%,-3.1%,.
O=C(CSc1ccc(-c2ccco2)nn1)NCc1ccc(F)cc1,0.6,?,-1,3,1.9%,-7.7%,-3.3
Cc1nc(Nc2ccccc2)sc1C(=O)c1ccc(F)cc1,-0.6,-20%,8,-17,5.1%,1.1%,-15
Cc1ccc2nc(-c3ccccc3)cc(C(=O)N3CCc4ccccc4C3)c2c1,2.0,?,38,-10,3.7%,-19%,1.6
O=C(/C=C\c1ccccc1)Nc1nccs1,-0.9,-15%,5,2,5.2%,-8.7%,0.5
Cc1ccc(-c2cc(C(=O)Nc3cc(C)ccc3C)[nH]n2)c(O)c1,1.2,10%,10,?,0.4%,0.1%,4.9
CCCCNC(=O)c1sc(=S)n2c1[nH]c(=O)c1ccccc12,3.9,-5%,4,-1,?,1.8%,-2.9
CCc1cccc(C)c1NC(=O)c1cc(C)oc1C,1.0,-1%,-15,5,-1.6%[38.3 µM],-1.5%,3.0
S=C(NCc1ccccc1)C(=S)NCc1ccccc1,0.0,.,7,.,1.2%,.,.
CCOC(=O)c1ccc(NC(=O)N2CCc3ccccc3C2)cc1,0.5,-1%,-9,-6,-0.1%,-0.1%,3.6
Cc1ccc(C(=O)N/C(=C\c2ccc(Cl)cc2)C(=O)NC2CCCCC2)cc1,-0.5,.,13,.,15%,-3.3%,.
Cn1c(=O)c(C(=O)CN2CCN(S(=O)(=O)c3ccccc3)CC2)c(N)n(Cc2ccccc2)c1=O,0.2,11%,0,1,0.7%,-1.4%,3.6
Cc1cc(NC(=O)C(C)SCC(=O)OCc2ccc(Cl)cc2Cl)no1 (configuration not stated),2.2,.,-11,3,-0.6%,-2.2%,.
Cc1ccc(OCC(=O)Nn2cnc3ccccc32)cc1,19,?,-15,-5,-0.7%,1.3%,3.7
CCn1nnnc1SCC(=O)NC1CCCC1,-0.5,7%,2,1,2.0%,1.2%,3.1
COc1ccccc1CNC(=O)CN1C(=O)CSc2ccc(S(=O)(=O)N(C)C)cc21,-0.9,.,8,.,1.0%,2.3%,.
CN(C)CCNC(=O)C1CCN(c2ncnc3c2nc2n3CCCCC2)CC1,-0.2,.,10,.,3.1%,-2.3%,.
C/C(=N\NC(=O)CN1CCOCC1)C(C)(C)C,0.6,5%,10,10,10µM*,0.5%,-0.1
O=C(c1ccccc1F)N1CCN(Cc2ccc3c(c2)OCO3)CC1,0.4,-15%,37,18,-0.5%,-0.6%,-4.4
CC(C)CCn1c(Oc2ccc(Cl)cc2)nc2c1c(=O)n(C)c(=O)n2C,1.0,-16%,3,-2,-2.2%,-3.4%,-2.5
O=C(c1cccs1)N1C[C@H](n2cc(C3CC3)nn2)[C@@H](O)C[C@@H]1c1ccccc1,-0.3,.,-5,.,2.1%,0.5%,.
O=c1[nH]c(CN2CCN(Cc3ccc4c(c3)OCO4)CC2)nc2ccccc12,-0.5,6%,-3,7,-2.9%,-4.2%,-3.9
CCCCS(=O)(=O)c1oc(-c2ccc(F)cc2)nc1S(=O)(=O)c1ccccc1,-0.7,.,58,.,-1.2%,-7.7%,.
O=C(C[n+]1ccc2ccccc2c1)c1ccc(NC(=O)c2ccccc2)cc1,0.2,10%,-8,0,-0.2%,.,-0.9
CCOc1ccc(/C=C/c2nc3ccccc3n2S(=O)(=O)c2ccc(Br)cc2)cc1,-0.7,.,-2,.,4.2%,?,.
COc1cccc(C(=O)NCC(=O)N/N=C/c2c(C)[nH]c3ccccc23)c1,5.4,3%,34,-7,3.6%,-2.7%,.
COc1cc(-c2nnc(SCC(=O)N3CCOCC3)o2)cc(OC)c1OC,-0.3,-4%,-3,1,1.1%,-1.1%,.
CC(C)(C)c1ccc(C(=O)NC2CCS(=O)(=O)C2)cc1 (configuration not stated),-0.3,9%,0,-20,0.1%,.,-0.1

From PubChem
